# gsp antag: antagonists of gsp mutant (McCune-Albright syndrome); hit rate 0.4% among 340,000; AID 624288; gsp-mutant cells, cAMP HTRF, 30 min; control for the full effect not named in the record; Potency, µM (titrated, usually from 76.9 µM), inactives show at the top dose activity change, negative = inhibition, hits mostly inhibitors; active = falling curve of any shape with a large fitted effect; inconclusive = falling curve, mostly with a smaller effect; inactive = flat or rising curve; cell line not stated here;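 note: intracellular cAMP measured with PDE inhibitor Ro 20-1724 present during compound exposure; potency is the fitted concentration of half-maximal effect; % is set by controls: 0 for no effect and ±100 for the full control effect; nearly all actives have a fitted effect of over 65% in size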
#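 HTRF cAMP read-out (cAMP-d2 plus anti-cAMP antibody-K in lysis buffer, 30 min RT). Before lysis, cells are exposed to compounds with […] for 30 min at 37C in DPBS containing Ca/Mg, BSA and Tween 20.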
# TRPML1 ag: agonists of human TRPML1 channel. Q9GZU1. TRPML1-expressing cells, Ca2+ dye fluorescence, FDSS; host cell line not named in the record; reference of the full effect not given here. hit rate 0.12% among 410,000. activation, % (test concentration not listed). AID 624414; in the data active = activation above about 50%; inconclusive = about 30% to 50%; inactive = below about 30%; note: 0% is about no effect; the text of the record puts the active cut at 80%
# Target sequence (Q9GZU1 whole entry, looked up): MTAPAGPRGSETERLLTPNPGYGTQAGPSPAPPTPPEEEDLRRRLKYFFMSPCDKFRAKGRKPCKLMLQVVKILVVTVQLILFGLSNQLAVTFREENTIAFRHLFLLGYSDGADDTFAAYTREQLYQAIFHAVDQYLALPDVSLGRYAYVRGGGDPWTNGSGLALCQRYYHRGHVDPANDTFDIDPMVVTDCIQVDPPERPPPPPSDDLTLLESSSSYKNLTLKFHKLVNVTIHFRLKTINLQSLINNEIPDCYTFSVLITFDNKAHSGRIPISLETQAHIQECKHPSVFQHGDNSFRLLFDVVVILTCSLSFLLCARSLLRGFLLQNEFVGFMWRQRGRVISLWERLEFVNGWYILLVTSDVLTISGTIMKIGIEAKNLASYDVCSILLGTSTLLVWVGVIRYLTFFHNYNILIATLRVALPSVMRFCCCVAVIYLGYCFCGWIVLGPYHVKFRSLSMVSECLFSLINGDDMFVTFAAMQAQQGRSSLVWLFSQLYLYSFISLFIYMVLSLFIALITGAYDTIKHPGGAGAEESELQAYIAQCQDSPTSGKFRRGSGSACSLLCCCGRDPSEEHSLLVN
#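 TRPML1-DL cells, Tet-induced overnight (~16 h, 37 degrees C), loaded 45-90 min at room temperature with Ca8 no-wash calcium dye plus quencher. FDSS fluorescence: 10 s baseline, compound pin-transfer, 110 s agonist read, then EC80 54-4 (4uM final) and 110 s antagonist read.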
# gsp agonist: gsp mutant agonism. gsp mutant cells, cAMP HTRF, 30 min; control for the full effect not named in the record. Potency, µM (series often up to 76.9 µM), for inactives: at the top dose activation (cAMP increase), most hits filed as activators. hit rate 0.13% among 340,000; active = well fitted activation curve with a large enough effect; inconclusive = small, poorly fitted or top-dose-only effect, or another doubt; inactive = no such curve, though single readings can be large or run the other way; cell line not stated here;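 note: phosphodiesterase inhibitor Ro 20-1724 added with compounds to block cAMP breakdown; potency is the fitted concentration of half-maximal effect; nearly all actives have a fitted effect of over 60% in size; about a fifth of the inactives were tested at one dose only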
#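 Cells stably selected in G418 were plated at 2000/well, grown 16-24 hr, then given compounds in DMSO with the PDE inhibitor […] (300 uM solution added) for 30 min at 37C; cAMP was read by HTRF.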
# ClpP mod: qHTS Assay for Activators of ClpP | purified B. subtilis ClpP, FRET peptide cleavage, 20 min | Potency, µM (highest dose often 57.5 µM), for inactives: at the top dose activity change, negative = active | hit rate 1.9% among 340,000 | ATP-dependent Clp protease proteolytic subunit (Bacillus subtilis (strain 168)), P80244; active = well fitted falling curve with a large enough effect; inconclusive = small, poorly fitted or top-dose-only effect; inactive = no such curve, though single readings can be large or run the other way; note: potency is the fitted concentration of half-maximal effect; the source files actives as falling curves though it sought activators and does not explain the sign; nearly all actives have a fitted effect of over 65% in size; many hits overshoot -100%
# Target sequence (P80244 whole entry, looked up): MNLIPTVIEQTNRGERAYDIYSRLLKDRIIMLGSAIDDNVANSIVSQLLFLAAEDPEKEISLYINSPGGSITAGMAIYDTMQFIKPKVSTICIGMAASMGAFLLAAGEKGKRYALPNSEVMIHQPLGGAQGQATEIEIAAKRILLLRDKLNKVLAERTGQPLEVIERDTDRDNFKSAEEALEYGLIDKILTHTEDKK
#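 ClpP 10 microg/mL final, pH 8 Tris/KCl buffer with BSA, glycerol, Tween-20; compound pinned in; FRET-FV substrate; RT 20 min; Ex320/Em430; ΔFRET vs ADEP 5.8 microM, DMSO, no enzyme.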
# TRPML1 inh: inhibitors of human TRPML1 channel; Q9GZU1; TRPML1-inducible cells, Ca2+ dye fluorescence, FDSS; hits give low values; inhibition of EC80 agonist-evoked calcium signal; activity change, negative = inhibition, % (test concentration not listed); hit rate 0.02% among 390,000; AID 624415; in the data active means activity change below about -50%; inconclusive means about -30% to -50%; inactive means above about -30%;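 note: stimulus is agonist 54-4 at its EC80 concentration; % is set by controls: 0 for no effect and ±100 for the full control effect; compound concentration not given in the record; the text of the record puts the active cut at -80%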
#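 Calcium fluorescence in TRPML1-DL cells induced overnight with Tet: a 110 s read after compound pin addition, then a 110 s antagonist read after challenge with 54-4 at 4 uM final (EC80).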
# Menin-MLL FL inh: menin-MLL binding inhibition, fluorescein peptide; Fluorescence polarization, fluorescein-MLL peptide displacement from menin; FP activity change, % at 61.4 µM; 290,000 tested, under 10 active; AID 1766; inconclusive = falling polarisation curve, or a change in total fluorescence; inactive = total fluorescence flat and polarisation flat or rising; no compound was filed as active; the % refers to the polarisation; negative = inhibition;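 note: % of control where 0% means no effect; inhibitors lower the polarisation; unlabelled MLL peptide was the positive control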
# The depositor's hits bear a star; ? = inconclusive; · = not tested or not shown; [ ] = dose if it differs, or a comment.
SMILES,gsp antag,TRPML1 ag,gsp agonist,ClpP mod,TRPML1 inh,Menin-MLL FL inh
Cc1ccc(CNc2ccc(N3C(=O)CCCC3=O)cc2[N+](=O)[O-])cc1,9%,0.4,-14%,1.0%,-8,·
CCOc1cc(C(c2c(C)[nH]n(-c3ccccc3)c2=O)c2c(C)[nH]n(-c3ccccc3)c2=O)ccc1O,·,-0.7,·,4.5%,8,·
Cc1cc(C(=O)N2CCOCC2)n(-c2ccccc2)n1,-1%,-0.4,0%,-2.0%,0,0.4
Cc1ccsc1/C=N/NC(=O)C1CC(=O)N(c2ccc(F)cc2)C1 (stereo unspecified),-5%,2.5,-25%,-1.5%,0,2.3
COc1cc(C2c3cc(O)c(OC)cc3CC(C(=O)O)C2CO)ccc1O (stereo unspecified),1%,0.4,?,·,13,·
COc1cc(OC)cc(C(=O)N/N=C\c2ccoc2)c1,7%,0.6,11%,-1.7%,6,1.3
Cc1ccc2c(c1)c1c(c(=O)n(-c3ccccc3C)c(=O)n1CC(=O)NCCC1=CCCCC1)n2C,·,0.2,·,4.1%,-11,·
O=C(Nc1ccccc1)N1CCNCC1,10%,0.2,-11%,-0.6%,14,-0.2
O=C(Cc1ccccc1)N/N=C/c1ccccc1Cl,-14%,4.2,20%,-2.1%,24,2.1
COC(=O)C1=C(Nc2ccccc2NS(=O)(=O)c2ccc(C(F)(F)F)cc2Cl)CSC1,11%,0.0,-2%[15.4 µM],·,6,2.9
Cc1ccc(C(=O)Nc2c(-c3ccccc3)nc3ccccn23)cc1,·,-0.1,·,-0.8%,13,·
Nc1cccc(S(=O)(=O)NC2=NCCC2)c1,3%,-0.1,-7%,-1.2%,-3,-1.8
COc1ccccc1N1CCSC1C(N)=O (stereo unspecified),-9%[15.4 µM],0.5,-37%[inhibitor],-0.8%,9,0.6
COc1ccc(-n2c(SCC(=O)Nc3ccccc3)nnc2-c2ccc(NS(=O)(=O)c3ccc(C)cc3)cc2)cc1,1%,0.4,-25%,-0.9%,-6,3.5
O=S(=O)(c1cccc(C(F)(F)F)c1)N1CCN(c2nnnn2-c2ccccc2)CC1,11%,1.7,-39%[inhibitor],-1.2%,6,2.5
O=C(Cc1c[nH]c2ccccc12)OCCOC(=O)Cc1c[nH]c2ccccc12,-9%,0.0,-6%,-0.8%,12,4.9
O=C(CSc1nc2c([nH]c3ccccc32)c(=O)n1-c1ccc(Cl)cc1)NCC1CCCO1 (stereo unspecified),·,2.3,·,?,8,·
Nc1cc(SCc2ccc([N+](=O)[O-])cc2)ncn1,6%,-0.3,-21%,·,-9,·
Clc1ccc(-c2nnc3n2CCCCC3)cc1,2%,3.0,-29%,-1.8%,2,2.4
COc1ccc(C2(C(F)(F)F)NC(=O)N(C)C(=O)N2C)cc1 (stereo unspecified),0%,1.8,?,-0.6%,1,0.1
CC(C)CCNC(=O)C(c1cccnc1)N(CCc1ccccc1)C(=O)Cn1nnc2ccccc21 (stereo unspecified),2%,0.7,0%[15.4 µM],18µM*,4,-1.5
CCOc1ccc(OCC)c(NC(=O)CN2CCN(CC)CC2)c1,0%[15.4 µM],3.9,11%,-7.4%,28,4.7
COCc1cc(=O)n2[nH]c(-c3ccccc3)cc2n1,-2%,1.4,4%,25µM*,5,2.0
CCOc1ccc(C(=O)COC(=O)Cc2n[nH]c(=O)c3ccccc23)cc1,0%,1.9,26%[15.4 µM],·,5,·
COc1ccccc1NC(=O)CCNS(=O)(=O)c1ccc2[nH]c(=O)oc2c1,20%,0.2,18%,0.6%,37,·

# The last 3 entries of the section before are carried over, then new ones follow.
SMILES,gsp antag,TRPML1 ag,gsp agonist,ClpP mod,TRPML1 inh,Menin-MLL FL inh
COCc1cc(=O)n2[nH]c(-c3ccccc3)cc2n1,-2%,1.4,4%,25µM*,5,2.0
CCOc1ccc(C(=O)COC(=O)Cc2n[nH]c(=O)c3ccccc23)cc1,0%,1.9,26%[15.4 µM],·,5,·
COc1ccccc1NC(=O)CCNS(=O)(=O)c1ccc2[nH]c(=O)oc2c1,20%,0.2,18%,0.6%,37,·
CC(C)=C1SC(N2CCOCC2)=NC1=O,2%,-0.3,0%,1.7%,-12,5.9
CCOC(=O)c1cnn(-c2cc(Oc3cccc(C)c3)ncn2)c1N,7%,0.0,0%,0.5%,36,-4.9
O=C(NCCN1CCN(c2cccc(Cl)c2)CC1)c1ccc(CSc2nc3ccncc3[nH]2)cc1,32µM*,0.2,17%,·,8,-0.3
Cc1nc(-c2ccc(S(=O)(=O)NCC3CCN(C(=O)OC(C)(C)C)CC3)s2)cs1,-5%,0.0,0%,-22%,-22,5.4
CCCCc1nnc(NC(=O)CCSc2ccccc2)s1,9%,0.5,-8%,-1.4%,14,5.2
Cc1c(C)n(CCN(C)C)c2ccc(C(=O)OCCN(C)C)cc12,-1%,-0.2,15%,-2.5%,19,1.4
Cc1ccc(NC(=O)C2CCCN(c3nc4ccccc4s3)C2)c(C)c1 (stereo unspecified),·,1.5,·,-0.8%,-15,·
CCOc1ccc(/C=C/c2nc(C#N)c(Nc3ccc(OCC)cc3)o2)cc1,·,-0.9,·,-21%,-4,·
Cc1ccc(S(=O)(=O)c2nc(-c3ccco3)oc2SCc2ccccc2Cl)cc1,·,0.7,·,-4.7%,-14,·
Cn1cccc1C(=O)NC(=O)CSc1nc2ccccc2s1,?,2.1,11%,0.4%,-2,0.5
Cc1ccccc1NC(=O)COC(=O)c1n[nH]c(=O)c2ccccc12,3%,0.9,21%,-4.9%,-5,·
O=C(CCc1ccccc1)Nc1nncs1,-2%,0.7,6%,0.1%,-7,-1.0
O=C1CC(c2ccc3c(c2)OCO3)CN1 (stereo unspecified),5%,-0.4,10%,-1.1%,-4,3.6
CCOc1ccc(-c2nc(N)ncc2-c2ccccc2OC)c(O)c1,-7%,0.6,-15%[15.4 µM],·,0,1.1
CCC(C)NC(=O)Cc1cn(C)c2ccccc12 (stereo unspecified),6%,-0.8,-7%,-14%,-7,5.6
Cc1cc(C(=O)NNC(=O)c2ccccc2F)c2ccccc2n1,4%,-0.1,-17%,-3.1%,34,·
O=C(NNS(=O)(=O)c1ccc(F)c(Cl)c1)c1cccc(S(=O)(=O)N2CCOCC2)c1,5%,0.2,-2%,-2.4%,-18,1.3
CCN(CC)C(=O)Cn1cc([N+](=O)[O-])cc1[N+](=O)[O-],2%,-0.3,-7%,·,2,·
COc1cccc(CN(C)C[C@@H]2OCc3ccccc3-c3c(n(C)c4ccccc34)C(=O)N([C@@H](C)CO)C[C@H]2C)c1,·,3.3,-33%,-4.3%,-8,·
COc1cc(-c2nnc(SCC(=O)c3ccccc3)o2)cc(OC)c1OC,0%,2.2,-22%,-1.2%,-3,-1.8
O=C(NCc1cccc(Cl)c1)C1CCC(=O)N(C2CC2)C1 (stereo unspecified),7%,1.3,16%,-0.8%,-1,-0.7
C[C@H]1CN([C@@H](C)CO)C(=O)Cc2cc(NS(=O)(=O)c3cccs3)ccc2O[C@H]1CN(C)S(=O)(=O)c1cn(C)cn1,5%,0.3,8%,-2.5%,6,·
Cc1c(NC(NC(=O)CC(C)C)C(Cl)(Cl)Cl)c(=O)n(-c2ccccc2)n1C (stereo unspecified),4%,1.1,-13%,1.0%,13,0.9
CN(C(=O)c1cc([N+](=O)[O-])ccc1NCc1cccnc1)c1ccccc1,-9%,-0.7,0%,1.5%,-7,6.4
Cc1nc(N2CCOCC2)c2c3c(sc2n1)CCC3,-20%,-1.1,-3%[15.4 µM],-0.3%,-1,0.7

# Reformatted with two lines to a compound: entries from further up
# Below each SMILES – gsp antag | TRPML1 ag | gsp agonist | ClpP mod | TRPML1 inh | Menin-MLL FL inh
CCN(CC)C(=O)Cn1cc([N+](=O)[O-])cc1[N+](=O)[O-]
→ 2% | -0.3 | -7% | · | 2 | ·
COc1cccc(CN(C)C[C@@H]2OCc3ccccc3-c3c(n(C)c4ccccc34)C(=O)N([C@@H](C)CO)C[C@H]2C)c1
→ · | 3.3 | -33% | -4.3% | -8 | ·

# (cont.)
SMILES,gsp antag,TRPML1 ag,gsp agonist,ClpP mod,TRPML1 inh,Menin-MLL FL inh
CC(C)NC(=O)CCCC(=O)NC(C)C,11%,-0.2,-5%,1.2%,-1,4.4
CC(C)CCC[C@@H](C)[C@H]1CC[C@H]2[C@@H]3C(=O)C=C4C[C@@H](O)CC[C@]4(C)[C@H]3CC[C@]12C,3%,0.0,·,-1.2%,-2,·
O=S(=O)(c1ccccc1)c1nc(-c2ccccc2)oc1NCCCN1CCOCC1,-16%,-0.7,-8%[15.4 µM],-1.1%,9,6.4
CCN(CC)S(=O)(=O)c1ccc(N2CCN(C)CC2)c(NC(=O)COc2ccc(F)cc2Cl)c1,10%,1.7,2%,-0.2%,2,·
COCCNC(=O)c1ccc2c(c1)N(Cc1cc(C)ccc1C)C(=O)c1ccccc1S2(=O)=O,·,2.2,·,-3.7%,9,·
Cc1nnc(Nc2ccc(S(N)(=O)=O)cc2)c2ccccc12,23%,-0.1,?,·,-5,0.5
CC(=O)Nc1ccc(S(=O)(=O)NCC2CCC(C(=O)NC3CCCCCC3)CC2)cc1 (stereo unspecified),16%,0.1,-57%[inhibitor],-1.5%,9,0.4
CCN(C(=O)COC(=O)c1cnc(C)cn1)c1c(N)n(Cc2ccccc2)c(=O)[nH]c1=O,11%,-0.2,0%,1.0%,-3,·
O=C(c1ccncc1)N1CCN(C(=O)c2ccncc2)CC1,0%,1.1,3%,0.5%,-22,0.4
CC(CNC(=O)CN1C(=O)C(=O)N(C2CCCC2)C1=O)c1ccccc1 (stereo unspecified),6%,-0.3,12%,-3.9%,29,·
CC(=O)NC(CC(=O)OCC(=O)Nc1ccc2c(c1)OCO2)c1ccccc1 (stereo unspecified),4%,0.3,10%,·,14,-3.3
CC(=O)[C@@H]1[C@@H](C)N(Cc2ccccc2)C(=O)N[C@H]1c1cccc(C(F)(F)F)c1,-4%,0.7,·,-0.5%,-8,1.1[11.7 µM]
O=C1NCN(CCO)CN1,1%,-0.2,-13%,-2.0%,-4,-3.9
CC1CN(C(=O)COC(=O)c2ccc(Cl)nc2)CC(C)O1 (stereo unspecified),-4%,0.9,11%[15.4 µM],·,-1,3.1
Cc1cc(OC(C)C)nc(NCc2ccccc2)n1,2%,0.7,22%,1.6%,-28,2.6
O=c1nc(/C=C/c2cccn2-c2ccc([N+](=O)[O-])cc2)cc(C(F)(F)F)[nH]1,12%,3.1,-15%[15.4 µM],·,4,20
O=C(/C=C/c1ccccc1Cl)Nc1ccncc1,6%,1.0,-24%,1.1%,30,3.1
O=C(N/N=C\c1ccccn1)C1c2ccccc2Oc2ccccc21,·,1.5,0%[15.4 µM],·,7,2.5
COC(=O)c1sccc1NC(=O)c1c(C)noc1C,9%,2.6,-12%,-4.2%,2,0.1
COc1ccc(NC(=O)CN(C)C(=O)CN2C(=O)c3ccc([N+](=O)[O-])cc3C2=O)cc1,7%,0.8,-8%,-1.2%,13,·
CCOC(=O)Cn1c(=NC(=O)CSC(C)=O)sc2ccccc21,?,0.0,3%,-2.4%,5,6.3
